# Screening results (PubChem)
# RecA splice inh: inhibitors of M. tuberculosis RecA intein splicing; 290,000 compounds, 0.75% hits; P9WHJ3; inhibition, %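 (about 9 µM by stock and volumes)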; cell-free RecA intein splicing, fluorescence; in the data active means inhibition above about 30%; inconclusive means no clear call, values can overlap the other calls;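 further: 0% = vehicle wells and 100% = reference inhibitor control wells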
# Target sequence (P9WHJ3 whole entry, looked up, canonical isoform): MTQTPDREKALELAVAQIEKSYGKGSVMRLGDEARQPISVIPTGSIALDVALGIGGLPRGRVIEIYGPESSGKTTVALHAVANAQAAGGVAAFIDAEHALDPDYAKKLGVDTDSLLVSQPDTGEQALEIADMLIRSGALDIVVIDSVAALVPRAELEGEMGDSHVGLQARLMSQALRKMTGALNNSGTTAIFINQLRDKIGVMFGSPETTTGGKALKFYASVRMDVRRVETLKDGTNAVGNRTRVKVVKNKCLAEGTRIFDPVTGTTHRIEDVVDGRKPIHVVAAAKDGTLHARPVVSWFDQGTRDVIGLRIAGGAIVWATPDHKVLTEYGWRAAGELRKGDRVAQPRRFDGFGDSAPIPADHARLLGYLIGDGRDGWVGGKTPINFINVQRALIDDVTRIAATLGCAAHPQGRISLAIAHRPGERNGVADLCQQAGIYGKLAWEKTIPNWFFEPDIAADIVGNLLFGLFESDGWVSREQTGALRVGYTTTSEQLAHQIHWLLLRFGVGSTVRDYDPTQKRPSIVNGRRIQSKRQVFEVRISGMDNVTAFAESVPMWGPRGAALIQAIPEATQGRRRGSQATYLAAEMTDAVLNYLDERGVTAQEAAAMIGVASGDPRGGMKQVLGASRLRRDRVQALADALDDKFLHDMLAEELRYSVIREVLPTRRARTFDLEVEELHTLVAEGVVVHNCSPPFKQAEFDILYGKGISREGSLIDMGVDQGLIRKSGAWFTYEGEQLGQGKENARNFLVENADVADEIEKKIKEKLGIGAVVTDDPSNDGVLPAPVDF
# Mtb H37Rv: M. tuberculosis H37Rv growth inhibitors, H37Rv strain (AID 1626); M. tuberculosis H37Rv growth inhibition; higher % means a stronger effect; one-dose inhibition, % at 10 µM; IC50 in µM for titrated hits; 220,000 compounds, 0.95% hits;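 active means confirmed in a dose series; inconclusive means inhibition above 80% but not taken into the dose series; inactive means below 80% or under 30% at every dose of the series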;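 further: bacteria incubated seven days before Alamar blue readout; 0% = bacteria only wells and 100% = bacteria with antibiotic wells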
# Arbovirus inh: arbovirus infection inhibition. arbovirus infection cell-based antiviral screen. inhibition, % at 10 µM. 200,000 compounds, 0.37% hits. AID 1251;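 active means inhibition from about 30%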;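 further: bluetongue infection of BSR cells; cell survival read as ATP light after 72 h; 0% = infected wells without compound and 100% = uninfected wells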
# Mtb bLac sens: beta-lactam sensitization of Mtb H37Rv; M. tuberculosis H37Rv growth with meropenem, percent inhibition; hits of this screen are not shown here; inhibition, % at 25 µM; 330,000 compounds, 0.27% hits; AID 434955;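 active means about 74% or more and at least 40 points above the plate without the antibiotic, then above 30% in a dose series; inconclusive means first-round hits that could not be retested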;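 further: growth measured after seven days incubation then overnight dye step; 0% = bacteria only wells and 100% = bacteria with antibiotic; twin plates without the antibiotic show which effects depend on it; some results filed as inactive read as strong as hits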
# YopH PTP inh: YopH (Yersinia) phosphatase inhibition. fluorescence Ex485/Em525. inhibition, %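 (about 10 µM by stock and volumes)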. 140,000 compounds, 0.16% hits. AID 898;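 active means inhibition of 50% or more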;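 further: controls were vehicle for no effect and minimum signal wells for full effect; inactives centre near -20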
# Arbovirus inh repeat: second read-out of Arbovirus inh, no call of its own (marks repeat the call); inhibition, %; measured here: 10K subset replicate screen; many hits read low in the repeat;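 first of two repeat runs on a subset; 0% = infected and 100% = uninfected wells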
# An asterisk follows results filed as active; ? = inconclusive; . = not tested or not shown.
SMILES,RecA splice inh,Mtb H37Rv,Arbovirus inh,Mtb bLac sens,YopH PTP inh,others
Cc1cc(C(=O)N(C)CC2CCCN(CCc3ccc(F)cc3)C2)c(C)o1 (configuration not stated),2.7,.,.,4,.,
COc1ccc(-c2nc(CSCC(=O)N3CCN(C4CCCCC4)CC3)c(C)o2)cc1OC,-0.1,-2%,0,-7,8,Arbovirus inh repeat=3
COC(=O)c1c(C)oc2ccc(OC(=O)c3cccs3)cc12,-7.0,1.1µM*,4,99,-26,Arbovirus inh repeat=-2
COc1cccc(N(C(=O)c2csnn2)C(C(=O)NC2CCCC2)c2ccccc2)c1 (configuration not stated),3.4,.,.,2,.,
O=[N+]([O-])c1cccc(COc2ncnc3cc([N+](=O)[O-])ccc23)c1,-3.4,3%,.,3,.,
CCOc1ccc(-c2csc(NC(=O)CSCC(=O)O)n2)c2ccccc12,2.0,1%,32*,-5,.,
Cc1ccc(C(=O)Nc2nc(=O)n(C)s2)cc1,6.3,0%,15,5,-16,
O=C(COC(=O)COc1ccccc1)NCc1ccccc1,-0.8,-9%,1,13,.,
CCCCNC(=O)C1CCN(C(=O)Nc2ccc(C)cc2)CC1,1.7,-7%,-4,-1,-30,
CCc1ccccc1N(CC(=O)OC)S(C)(=O)=O,-8.0,11%,15,3,-8,
Cc1ccc(SCC(=O)OCC(=O)Nc2ccc3[nH]c(=O)[nH]c3c2)cc1C,-0.9,.,.,2,.,
CN1CCN(C(=O)c2ccccc2[N+](=O)[O-])CC1,2.1,.,.,0,.,
COc1ccc(/C=C(/C#N)C(=O)Nc2ccc(O)cc2)cc1C(=O)O,45*,-4%,-7,-4,.,
COc1cc(CCCN2C(N)=NC[C@H]2Cc2ccc(O)cc2)cc(OC)c1OC,-0.7,-7%,.,-6,.,
CCN1C(=S)SC(=O)C1=C1C=C(C)N(Cc2ccco2)C(C)=C1,-2.3,.,-13,8,-28,

# Structures above that contain nitrogen in an aromatic ring:
SMILES,RecA splice inh,Mtb H37Rv,Arbovirus inh,Mtb bLac sens,YopH PTP inh,others
COc1ccc(-c2nc(CSCC(=O)N3CCN(C4CCCCC4)CC3)c(C)o2)cc1OC,-0.1,-2%,0,-7,8,Arbovirus inh repeat=3
COc1cccc(N(C(=O)c2csnn2)C(C(=O)NC2CCCC2)c2ccccc2)c1 (configuration not stated),3.4,.,.,2,.,
O=[N+]([O-])c1cccc(COc2ncnc3cc([N+](=O)[O-])ccc23)c1,-3.4,3%,.,3,.,
CCOc1ccc(-c2csc(NC(=O)CSCC(=O)O)n2)c2ccccc12,2.0,1%,32*,-5,.,
Cc1ccc(C(=O)Nc2nc(=O)n(C)s2)cc1,6.3,0%,15,5,-16,
Cc1ccc(SCC(=O)OCC(=O)Nc2ccc3[nH]c(=O)[nH]c3c2)cc1C,-0.9,.,.,2,.,

# More compounds follow.
SMILES,RecA splice inh,Mtb H37Rv,Arbovirus inh,Mtb bLac sens,YopH PTP inh,others
Cc1ccc(N(C)S(=O)(=O)c2cccc(C(=O)Nc3ccc(C)cn3)c2)cc1,6.0,.,.,-1,.,
CC(=O)NC1(c2ccccc2)CCN(C(=O)N2CCOCC2)CC1,-0.7,3%,3,-11,5,
O=C(Nc1ccc2c(c1)OCCO2)C1CCCN1S(=O)(=O)c1cccc2cccnc12 (configuration not stated),1.7,-9%,4,-2,-36,
S=C(NCC1CCCO1)NC1CC1 (configuration not stated),-0.1,-4%,12,-2,.,
COc1ccc(CC(=O)Nc2ccc(-c3cn4ccc(C)cc4n3)cc2)cc1,-0.9,21%,10,66,-1,
NC(=O)CC(NC(=O)Cc1ccc(Br)cc1)c1ccc(N2CCCCCCC2)c([N+](=O)[O-])c1 (configuration not stated),-3.2,.,.,-2,.,
COCCCNS(=O)(=O)c1ccc(SC)cc1,2.7,9%,3,1,-6,
O=P(Cc1cc[n+]([O-])cc1)(c1ccccc1)c1ccccc1,-0.5,-20%,4,-17,-9,
Cc1ccc(-n2ncc3c(Nc4cccc(C(=O)O)c4)ncnc32)cc1,3.2,.,7,17,-19,
O=C(CN(c1ccc(F)cc1)S(=O)(=O)c1ccccc1)NC1CC2CCC1C2 (configuration not stated),-0.9,.,.,5,.,
COC(=O)c1ccc(N2C(=O)CC(SCCN)C2=O)cc1 (configuration not stated),1.1,4%,3,2,-44,
CC(CNC(=O)c1cc(COc2c(F)cccc2F)on1)c1ccccc1 (configuration not stated),3.3,.,.,6,.,
COc1ccc(/C(O)=C2/C(=O)C(=O)N(CCCN(C)C)C2c2ccc(C)o2)cc1Cl (configuration not stated),0.9,1%,9,.,-36,
CC(C)(C)c1cc(C(=O)NN)n(Cc2ccc(Cl)cc2Cl)n1,9.8,-3%,.,-10,.,
CN1CC=C2C(C#N)=C(N)C(C#N)(C#N)[C@H](c3ccoc3)[C@H]2C1,-118,-4%,3,0,1,

# 3 entries from above, ordered by SMILES length, lowest first.
SMILES,RecA splice inh,Mtb H37Rv,Arbovirus inh,Mtb bLac sens,YopH PTP inh,others
S=C(NCC1CCCO1)NC1CC1 (configuration not stated),-0.1,-4%,12,-2,.,
COCCCNS(=O)(=O)c1ccc(SC)cc1,2.7,9%,3,1,-6,
Cc1ccc(N(C)S(=O)(=O)c2cccc(C(=O)Nc3ccc(C)cn3)c2)cc1,6.0,.,.,-1,.,

# Continuation:
SMILES,RecA splice inh,Mtb H37Rv,Arbovirus inh,Mtb bLac sens,YopH PTP inh,others
O=C(O)C1C2C=CC(C2)C1C(=O)Nc1ccccc1Br (configuration not stated),-0.9,.,.,1,.,
COc1ccc(N=C2SC(CC(=O)Nc3ccccc3)C(=O)N2Cc2ccco2)cc1 (configuration not stated),6.7,13%,1,5,-21,
COc1ccc(Cl)cc1NS(=O)(=O)c1cn(C)nc1C,1.0,.,.,-8,.,
O=C(Nc1ccccc1O)c1cccc(S(=O)(=O)Nc2ccccc2O)c1,2.4,.,.,-10,.,
O=C(O)c1c2c(nc3ccccc13)-c1ccccc1CC2,0.7,-5%,7,-9,.,
Cc1ccc(CNCCC2=CCCCC2)cc1,2.4,0%,-8,0,-1,
COC(=O)[C@@H]1C[C@@]2(O)[C@H](O)[C@H](O)[C@H](O)C[C@H]2N1Cc1ccc(C)s1,-0.6,0%,.,4,.,
O=C(Nc1ccccc1)C1CCCN1S(=O)(=O)c1ccc(Br)cc1 (configuration not stated),0.9,.,.,-15,.,
CNc1ccc(C(=O)N2CCN(S(=O)(=O)c3ccc4c(c3)OCCCO4)CC2)cc1[N+](=O)[O-],2.1,.,.,2,.,
O=C(CCc1ccc(O)cc1)NNC(=S)NCCc1ccccc1,-1.9,-9%,.,-3,.,
CCOc1ccc(N2C(=O)CS/C2=C(\C(Cl)=C(Cl)Cl)[N+](=O)[O-])cc1,12,?,-1,97,48,
COc1cccc(/C=C/C(=O)OCC(=O)NC(=O)NC2CCCCC2)c1,0.1,.,.,13,.,
O=C(N=C1SC2CS(=O)(=O)CC2N1CCc1ccccc1)C1CC1 (configuration not stated),-0.7,.,.,2,.,
COc1ccc(NC(=O)C2CCN(C(=O)c3ccco3)CC2)c(OC)c1,-0.8,.,.,-5,.,
Cc1cc(C)nc(-n2nc(C)cc2NC(=O)C(C)C)n1,-2.8,9%,0,0,.,
O=[N+]([O-])c1cc(Br)cc(C=Nc2ccc3c(c2)OCO3)c1O,5.0,4%,.,85,.,
CCN1C(=O)[C@H]2[C@@H](c3ccc(OC)cc3)N3C(=O)CN(CCOC)C(=O)[C@@]3(Cc3ccccc3)[C@H]2C1=O,0.6,.,.,-10,.,
CCn1c(-c2cccn(Cc3ccccc3)c2=O)n[nH]c1=S,5.6,1%,16,-6,.,
CCc1ccc(NC(=O)CC2C(=O)N(c3cccc(C)c3)C(=O)N2C2CC2)cc1 (configuration not stated),0.4,2%,12,-3,.,
O=C(NN1C(=O)C2C3C=CC(C3)C2C1=O)c1ccccc1 (configuration not stated),-5.1,-2%,8,7,.,
Cc1ccc(SCc2[nH]nc3c2C(c2cccnc2)C(C#N)=C(N)O3)cc1 (configuration not stated),13,-7%,5,1,-36,
Cc1sc2nc(SCc3nnc(-c4cccs4)o3)n(C3CCCC3)c(=O)c2c1C,4.0,0%,2,-5,-43,
Cc1ccccc1NC(=O)CN1C(=O)CSc2ccc(S(=O)(=O)N3CCCC3)cc21,-1.4,.,.,-3,.,
COC(=O)c1sccc1NC(=S)Nc1cc(OC)ccc1OC,-0.9,0%,2,1,.,
NS(=O)(=O)c1ccc(CCNC(=O)NC23CC4CC(CC(C4)C2)C3)cc1,-1.5,3%,3,1,.,
COc1cc(OC)cc(-c2nnc(SCC(=O)Nc3cccc(C(=O)O)c3)s2)c1,1.5,-5%,21,-5,.,
O=C(OCC(=O)N1CCN(c2ccccc2)CC1)c1ccc(Cl)nc1,0.0,.,.,8,.,
COc1ccccc1/C=C/C(=O)NC(=S)N1CCOCC1,1.9,.,.,-7,.,
CCN(CC(=O)Nc1ccc(NC(C)=O)cc1)C(=O)C1COc2ccccc2O1 (configuration not stated),-3.0,.,.,1,.,
COCCNC(=O)CSc1nnc(-c2ccc(C)cc2)c(-c2ccc(C)cc2)n1,-1.3,9%,-13,14,.,
O=c1nc(-c2ccccc2)n(-c2ccccc2)[nH]1,0.8,-3%,5,9,-16,
CCn1c(C)cc(C)c(C#N)c1=O,-1.0,0%,6,0,.,
CSc1cccc(NC(=S)N(CCN(C)C)C(C)c2ccccn2)c1 (configuration not stated),-12,43%,6,62,.,
COc1ccc2c(c1)NP(=S)(Oc1ccccc1)N2 (configuration not stated),-7.3,2%,.,8,.,
OCCNCCSc1nc(C2CCCCC2)n(-c2ccccc2Cl)n1,1.3,-3%,.,-6,.,
COCCNCc1ccc(Cl)cc1Cl,1.0,-4%,19,-2,.,
O=C(CN1CCN(S(=O)(=O)c2ccccc2)CC1)Nc1ccc(N2CCOCC2)cc1,3.5,8%,0,-9,-44,
Cc1occc1C(=O)O/N=C(\N)c1ccccc1,1.3,1%,.,-3,.,
Cc1cc2oc(=O)cc(Cn3ccnc3)c2cc1Cl,0.3,.,.,-3,.,
O=C(c1cc2ccccc2o1)n1nnc2ccccc21,-1.0,-4%,-2,-2,-31,
Cc1cc(C)n(CC(=O)NNC(=O)CCCOc2ccc(Cl)cc2C)n1,-3.0,.,.,-3,.,
CCn1ccnc1CN(C)Cc1c(C(=O)N2C[C@@H](C)O[C@@H](C)C2)nc2ccc(Cl)cn12,3.8,.,.,-2,.,
COc1ccccc1NC(=S)c1ccccc1,5.5,10%,-5,-1,-19,
O=C(NC1CCCC1)C1CCN(C(=O)NCc2ccccc2)CC1,-1.5,-6%,0,-5,.,
CNC(=O)Nc1cccc(-c2cc(-c3c(Cl)cccc3Cl)no2)c1,14,5%,.,88,.,
CC(C)OC(=O)CC1C(=O)NCCN1C(=S)NC(=O)c1ccc(F)cc1 (configuration not stated),-0.2,-2%,6,2,.,
Cc1cc2c(c(=O)o1)C1(C(=O)N(C)c3ccccc31)C(C#N)=C(N)O2 (configuration not stated),0.2,1%,-2,-4,-36,
COC(=O)c1cccc(NC(=O)c2ccc3c(c2)C(=O)N(C(C)(C)C)C3=O)c1,-2.1,.,.,9,.,
Cc1ccccc1-c1nc(CS(=O)(=O)CC(=O)NCCN2CCOCC2)c(C)o1,-0.2,-5%,-1,-9,-20,
CSCC[C@H](NC(=O)[C@@H]1CSC2c3ccccc3C(=O)N21)C(=O)NC1CCCC1 (some centres not stated),-1.3,.,.,6,.,
CC(C)N(CCNC(=O)c1ccc(CS(=O)(=O)c2c(Cl)cccc2Cl)o1)Cc1ccccc1,2.0,.,.,3,.,
COc1ccc(C2c3[nH]c4ccccc4c3C[C@H]3C(=O)N(C4CCN(Cc5ccccc5)CC4)CC(=O)N23)c(OC)c1 (some centres not stated),-0.2,.,.,?,.,
CN(CC(=O)c1c(N)n(C)c(=O)n(C)c1=O)c1ccccc1,-3.2,-2%,7,-3,.,
O=C(c1c(F)cccc1F)N1CCC(n2nnc3cc(C(F)(F)F)ccc32)CC1,-0.4,-1%,1,5,.,
Cc1c(C(=O)O)sc2nc(CSc3nnc(-c4ccc(F)cc4)n3C)[nH]c(=O)c12,-1.4,-5%,2,-15,.,
Cc1nn(C)cc1C1C(C#N)=C(N)N(c2cccnc2)C2=C1C(=O)CCC2 (configuration not stated),-2.4,-2%,1,3,-17,
Clc1cccc(CNCCc2ccc3c(c2)OCO3)c1,0.3,.,.,5,.,
COc1cccc(CNC(=O)C23CN(Cc4ccccc4)CC2C(c2ccc([N+](=O)[O-])cc2)=NO3)c1 (configuration not stated),1.5,6%,8,14,17,
COc1ccc2[nH]c(=O)c(CN(Cc3cccnc3)S(=O)(=O)c3ccccc3F)cc2c1,0.1,.,.,5,.,
C=CCOc1ccc(C2N3CC4(C)CN2CC(CCC)(C3)C4=O)cc1 (configuration not stated),.,14%,1,82,-22,
O=C(NCCCn1ccnc1)c1ccccc1F,0.1,.,.,-1,.,
CCC1=NC(c2ccc(OC)c(OC)c2)N(O)C1(C)C (configuration not stated),-3.6,-4%,2,2,-30,

# The list is partial. The share of hits here may be higher or lower than overall.
